RE007 growth inh = less growth of the S. pombe RE007 Vpr strain; S. pombe RE007 Vpr strain, BacTiter-Glo ATP luminescence, 24 h; control for the full effect not named in the record; Potency, µM (doses to about 92.2 µM), without a hit: at the top dose activity change, negative = less growth; 360,000 compounds, 0.21% hits; active = well fitted falling curve with a large enough effect; inconclusive = small, poorly fitted or top-dose-only effect; inactive = no such curve, though single readings can be large or run the other way;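 also: nearly all actives have a fitted effect of over 50% in size; the assay follows cell death caused by Vpr and the record does not say whether a fall means rescue or toxicity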
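Fission yeast RE007 carrying one integrated HIV-1 vpr copy, seeded at OD 0.01 in PMG+AL medium with 23 nL pinned compound. Grown 24 h at 30 degrees; viability read by BacTiter-Glo luminescence after 5 min.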
StopGo reporter = FMDV 2A StopGo reporter, luciferase signal | human cells with a luciferase reporter of 2A StopGo recoding; control for the full effect not named in the record | Potency, µM (series often up to 57.9 µM), for inactives: at the top dose signal change, negative = less light | 410,000 compounds, 1.2% hits | AID 1159524; active = well fitted falling curve with a large enough effect; inconclusive = small, poorly fitted or top-dose-only effect; inactive = no such curve, though single readings can be large or run the other way; tested in HEK293T cells; also: nearly all actives have a fitted effect of over 45% in size; luciferase light after 4 h
* hit, by the source's call; ? = inconclusive; . = not tested or not shown; [ ] = remark or other dose. % is scaled to controls: 0 for no effect and ±100 for the full control effect; potency is read from the fitted curve at half-maximal effect.

SMILES	RE007 growth inh	StopGo reporter
CCOC1=C2[C@@H](CN(S(=O)(=O)c3ccc(C)cc3)[C@H]2c2cccc3ccccc23)[C@H]2C(=O)N(C)C(=O)[C@H]2C1	3.4%	57.4%[activator]
O=C(Nc1ccc2c(c1)OCCO2)C(C1CC1)n1c(=O)c(-c2cc3ccccc3[nH]2)nc2ccccc21 (stereo not drawn)	-6.6%	-11.5%
Cc1ccc2nc(C3CCCCC3)c(Cc3ccccc3C(F)(F)F)n2c1	-28.3%	-24.3%
Cc1nc2ccccn2c(=O)c1NC(=O)c1ccc(Br)o1	15.3%	-12.7%
COC(=O)C[C@H]1C[C@H]2c3cc(NC(=O)CC4CC4)ccc3O[C@H]2[C@H](CO)O1	14.3%	?
CC(=O)Nc1cncc(-c2cccc(N(C)C)c2)n1	2.5%[18.4 µM]	10.6%
CCN(CC)S(=O)(=O)c1ccc(N2CCOCC2)c(NC(=O)c2nn(C)c(=O)c3ccccc23)c1	-8.0%	?
N#Cc1cnn(-c2cc(Cl)ccc2Cl)c1N	-8.6%	-19.7%
COC(=O)C1CCN(C2CN(C3CCCCC3)S(=O)(=O)C2)CC1 (stereo not drawn)	8.0%	-1.5%
CC(C)Nc1nc(NCc2ccccc2)c2sccc2n1	1.1%	?
O=c1[nH]c2ccccc2n1C1CCN(C(c2nnnn2Cc2ccccc2)C2CC2)CC1 (stereo not drawn)	-12.9%	-27.8%
CN1C[C@@H]2[C@@H]3C(=O)N(C)C(=O)[C@@H]3[C@](C)(C1=O)N2C(=O)c1ccccc1	2.9%	-8.5%
Cc1nc2c(OCc3ccc(C#N)cc3)cccn2c1N(C)Cc1cccs1	-16.7%[18.4 µM]	28.2µM*
Cc1ccc(S(=O)(=O)N2CCOCC2)cc1C(=O)OCC(=O)Nc1ccc(Cl)cn1	-5.9%	-20.2%
CC(=O)c1ccc(OCC(=O)Nc2cccc(C(=O)Nc3c(C)n(C)n(-c4ccccc4)c3=O)c2)cc1	-6.9%	-14.5%
COC(=O)c1ccc2nc(-c3ccc(F)cc3)c(CC3CCCCC3)n2c1	-25.4%	-13.0%
C[C@H]1CC[C@]2(O[C@H](CCO)C[C@H](O)[C@H]2O)O1	2.4%	-15.8%
O=C1NC[C@@H](CCCCN2CCN(CC3CCCCC3)C(=O)C2=O)N(CC2CCCCC2)C1=O	-0.7%	.
Cc1cccc(C)c1-c1ccc(CN2C(CC(C)C)C(=O)N(Cc3cn(CC4CCCCC4)nn3)CCS2(=O)=O)cc1 (stereo not drawn)	-0.8%	-22.9%
COc1ccc(C#Cc2c(-c3ccc(OC)cc3)oc3ccc(-c4ccc(OC)cc4)cc23)cc1	-2.3%	-10.8%
COC(C/C=C/[C@@H](O)[C@@H](C)OCc1ccccc1)OC	-3.1%	5.9%
COC(=O)[C@@]12C[C@@H](CC(=O)NCC34CC5CC(CC(C5)C3)C4)C(=O)N(Cc3ccc4c(c3)OCO4)C1=CCC(C)(C)C2	0.0%	-20.1%
CC1(Oc2cccc(F)c2)CCN(Cc2ccccc2OC(F)F)C1 (stereo not drawn)	-22.4%	-17.3%
CC(=O)Nc1cc(-c2ccc(N)nc2)cn2c(-c3cccc(C(F)(F)F)c3)cnc12	2.3%[18.4 µM]	-14.1%
COc1ccccc1OCCSc1nc2ccccc2n1CC(=O)O	0.0%	-24.6%

(continued)
SMILES	RE007 growth inh	StopGo reporter
C=CCn1c(C)nnc1SCC(=O)N1c2ccccc2NC(=O)C1(C)C	0.0%	-8.1%
CC1(C(=O)NS(=O)(=O)Cc2cccc(Cl)c2)CCN1C(=O)c1ccc(C2CCCCC2)cc1 (stereo not drawn)	7.1%[18.4 µM]	0.5%
CCCNC(=O)C1(C)CCCN(CCC(=O)c2ccccc2)C1 (stereo not drawn)	-14.8%	-10.2%
CCN1C[C@]2(COC)CC[C@H](O)[C@@]34C5C[C@H]6[C@H](O)C5[C@](O)(C[C@H]6OC)[C@@H]([C@H](OC)C23)[C@@H]14 (stereo partly drawn)	-12.4%	-15.1%
CC(C)NC(=O)c1cc(-c2ccc(F)cc2OC(C)C)n[nH]1	5.4%[18.4 µM]	-12.3%
O=C(OCc1cn([C@@H]2C[C@H](c3ccccc3)N(C(=O)C3CCCCC3)C[C@H]2O)nn1)c1ccccc1	-1.4%	-19.2%
CCNCC(=O)Nc1c(C)cccc1C	-15.5%	-18.1%
C=Cc1ccc(Cn2c(C)c(C(=O)NCc3ccccc3C(F)(F)F)sc2=O)cc1	6.0%[18.4 µM]	-17.1%
CN1CCN(c2ccc3c(c2)OC[C@@H](Cc2ccccc2)NS3(=O)=O)CC1	2.1%	-6.1%
CC(=O)Nc1cccc(-c2nc3ccccc3n2C(C)C(=O)NC(C)(C)C)c1 (stereo not drawn)	13.2%	-10.7%
CC1=C(C(=O)N(C)C)CC(CC(=O)NCc2cccs2)C(=O)N1CCCN1CCCC1=O (stereo not drawn)	-1.0%	-20.0%
C[C@@H]1CN([C@H](C)CO)S(=O)(=O)c2ccc(Br)cc2O[C@H]1CN(C)C(=O)C1CC1	-1.3%	0.0%
CC(C)(C)c1ccc(C(=O)NCc2nnc(SCC(=O)N3CCCC3)o2)cc1	5.6%	-20.8%
CCCCOC1OCN(C2CCCCC2)CC1(C)C (stereo not drawn)	14.5%	0.0%
COc1ccc(NC(=O)c2cc(C3CCCCN3C(=O)c3cc(F)ccc3C)on2)c(C)c1 (stereo not drawn)	-19.9%[18.4 µM]	-14.5%
COc1ccc([C@H]2C[C@@H](n3cc(C4CC4)nn3)[C@H](O)CN2C(=O)c2cccs2)cc1	-8.8%	-12.0%
O=C(O)c1ccccc1C(=O)N(c1ccccc1)c1ccccc1	5.1%	-6.0%
Cc1cc(Cl)ccc1OCC(=O)NNC(=O)c1cccs1	-19.2%	46.7%[activator]
COC[C@H]1CCCN1c1ccc2c(c1)O[C@H](COCc1ccccc1)CN([C@H](C)c1ccccc1)S2(=O)=O	9.2%	-10.1%
O=C(NCCN1CCOCC1)C(=O)NCC1OCCN1S(=O)(=O)c1ccc(Cl)cc1 (stereo not drawn)	-11.9%	0.0%
CCCc1c(-c2ccccc2)ncn1Cc1ccccc1OC	?	?
C1CCN(CCC2CCCCN2)CC1 (stereo not drawn)	-10.2%	0.0%
CC(C)(C)OC(=O)N1CCC[C@H]1C(=O)N1CCC[C@H]1C(=O)NCc1ccc(F)cc1F	-15.3%	-21.5%
O=C(NCCS(=O)(=O)N1CCN(C(=O)c2ccco2)CC1)c1ccccc1	-6.7%	0.0%
COc1ccc(C(=O)Nc2c(F)c(F)c(F)c(F)c2F)cc1OC	-0.9%	-3.8%

Structures above with an NH in an aromatic ring (3):
SMILES	RE007 growth inh	StopGo reporter
O=C(Nc1ccc2c(c1)OCCO2)C(C1CC1)n1c(=O)c(-c2cc3ccccc3[nH]2)nc2ccccc21 (stereo not drawn)	-6.6%	-11.5%
O=c1[nH]c2ccccc2n1C1CCN(C(c2nnnn2Cc2ccccc2)C2CC2)CC1 (stereo not drawn)	-12.9%	-27.8%
CC(C)NC(=O)c1cc(-c2ccc(F)cc2OC(C)C)n[nH]1	5.4%[18.4 µM]	-12.3%

Remaining list, next part:
SMILES	RE007 growth inh	StopGo reporter
O=C1NC[C@H](Cc2ccccc2)N(C[C@H]2CCCN2C[C@H](Cc2ccccc2)N2C[C@H](Cc3ccccc3)N(CC3CCCCC3)C(=O)C2=O)C1=O	18.7%	?
COc1ccccc1-c1cn(CC[C@H]2CC[C@@H](NS(=O)(=O)c3ccccc3C)[C@@H](CO)O2)nn1	11.4%	-17.4%
COc1cc(N=Nc2ccc(Br)cc2)cc(C=O)c1O	25.0%	?
OC[C@@H]1CN(Cc2ccc(-c3ccccc3)cc2)C[C@H](n2cnc3c(NC4CC4)ncnc32)O1	-6.0%	?
CC(C)N=C(NC(C)C)N1CC1	-23.3%	-24.2%
Cc1ccc(C(=O)OCC(=O)Nc2c(C)nn(-c3ccccc3)c2C)c(O)c1	-11.7%	-17.5%
COC(=O)[C@@]1(C(C)C)N=C(c2cc(OC)c(OC)c(OC)c2)[C@]2(O1)C(=O)Nc1ccccc12	-7.4%	-17.0%
C=CCOC(=O)N1CCC2CC1c1cc(-c3cccc(C)c3)ccc12 (stereo not drawn)	3.8%	?
CN(C)c1ccc(Cl)c(NC(N)=S)c1	15.2%	-22.6%
Cc1ccccc1NC(=O)Nc1nc(C(N)Cc2ccccc2)cs1 (stereo not drawn)	-6.8%	?
CC(=O)NC(c1ccc(Cl)cc1)c1ccc2cccnc2c1O (stereo not drawn)	?	-8.0%
CC1(C(=O)Nc2ccc3c(c2)OCCO3)CN(S(C)(=O)=O)CC(=O)N1CC(F)(F)F (stereo not drawn)	-0.6%	-2.3%
COc1cccc(Cn2cnc(-c3ccccc3OC)c2-c2cccs2)c1	?	-19.1%
Cc1ccc(S(=O)(=O)N2[C@H](CC(=O)c3ccc(Cl)c(Cl)c3)OC[C@@H]2C(C)C)cc1	0.0%	-0.1%
Nc1ccc(Cl)cc1C(=O)c1ccc[nH]1	-27.6%	-18.6%
CCCN(C)C1CN(Cc2cn(Cc3cc(C)cc(C)c3)nn2)S(=O)(=O)C1 (stereo not drawn)	-7.8%	-6.5%
CCCCC(=O)NC(c1cccc([N+](=O)[O-])c1)c1ccc2cccnc2c1O (stereo not drawn)	-1.6%	7.7%
COc1cc(OC)cc(-c2c(Sc3ccccc3)c3cc(-c4ccc5c(c4)OCCO5)ccc3n2C)c1	-0.8%	-9.7%
CC(C)(C)c1ccc(-c2ccc3c(c2)S(=O)(=O)c2ccccc2C3=O)cc1	0.1%	-18.6%
Cc1noc(C)c1C(=O)N1CCC1(C)C(=O)NS(=O)(=O)c1cccc(Cl)c1 (stereo not drawn)	-1.7%	-12.0%
C[C@H]1COc2cc(N3CCC[C@@H]3CO)ccc2S(=O)(=O)N1	1.7%	-20.5%
O=C(NCc1cccs1)c1ccc2sc([C@H]3C[C@H](O)[C@@H](CO)O3)nc2c1	-3.0%[18.4 µM]	9.4%
COc1c(CC=C(C)C)c(O)cc2oc(=O)c3c4ccc(O)cc4oc3c12	-6.2%	5.7%
COc1ccccc1-c1ccc([C@@H]2C[C@H]3[C@@H](CN2)CON3C)cc1	-5.7%	-4.0%
O=C([C@@H]1CC=C[C@@H]2CCN(C3CCCCC3)C(=O)[C@@H]21)N1CCN(c2ccccc2)CC1	-2.0%	-9.7%

The last four records of the part before open the next one.
SMILES	RE007 growth inh	StopGo reporter
O=C(NCc1cccs1)c1ccc2sc([C@H]3C[C@H](O)[C@@H](CO)O3)nc2c1	-3.0%[18.4 µM]	9.4%
COc1c(CC=C(C)C)c(O)cc2oc(=O)c3c4ccc(O)cc4oc3c12	-6.2%	5.7%
COc1ccccc1-c1ccc([C@@H]2C[C@H]3[C@@H](CN2)CON3C)cc1	-5.7%	-4.0%
O=C([C@@H]1CC=C[C@@H]2CCN(C3CCCCC3)C(=O)[C@@H]21)N1CCN(c2ccccc2)CC1	-2.0%	-9.7%
CC(C)(C)N1C(=O)c2ccccc2NC(=O)C1C(=O)NCc1ccco1 (stereo not drawn)	0.8%	-2.8%
CN1OC[C@@H]2CN(C(=O)C(C)(C)C)[C@H](c3cccc(-c4ccccc4)c3)C[C@@H]21	2.1%	-18.8%
COc1cc2[nH]c3c(c2cc1OC)CCN1CCCC[C@@H]31	7.7%	-15.9%
c1ccc2c(-c3nc4ccccc4[nH]3)cccc2c1	-18.4%	16.1%
c1coc(-c2cnc3ccccc3n2)c1	-22.0%	30.6%[activator]
COCC(=O)N1CCC2CC1c1cc(Cl)ccc12 (stereo not drawn)	2.4%	-18.6%
COc1cccc(CN(C)C[C@H]2OCc3cnnn3CCCC(=O)N([C@@H](C)CO)C[C@@H]2C)c1	21.5%	-3.4%
COC(=O)C1=C(c2ccc(OCc3ccccc3)cc2)C[C@@H]2CC[C@H]1N2C(=O)NCCc1ccc(F)cc1	6.4%	?
Cc1cccc(-c2cnc3cccnn23)c1	-8.2%[18.4 µM]	18.6%
CC1(C)CC(=O)C=C(c2cc3ccccc3s2)C1	0.4%	32.1%[activator]
CCN1C[C@@H]2[C@@H]3C(=O)N(Cc4ccccc4)C(=O)[C@@H]3[C@](Cc3ccccc3)(C1=O)N2C(=O)c1ccc(Br)cc1	-2.5%	8.7%
O=P1(O)CC2=C(CC=CC2)C1	-1.2%	-19.0%
CN(C)c1ccc(N=Nc2nccs2)cc1	?	-68.3%
CC(Sc1nnc(C(C)Oc2ccc(F)cc2)o1)C(=O)NCc1ccc2c(c1)OCO2 (stereo not drawn)	-11.3%	-28.1%
Nc1ccccc1-n1nc2ccc3ccccc3c2n1	-22.1%	41.6%[activator]
C[C@H](CO)N1C[C@H](C)[C@@H](CN(C)C(=O)c2cc(-c3ccccc3)on2)OCc2cnnn2CCCC1=O	7.9%	-18.7%
COc1ccc(C(=O)c2c(-c3ccc(OC)cc3)oc3ccc(-c4cc(OC)c(OC)c(OC)c4)cc23)cc1	-6.4%	-11.7%
COc1cc(OC)c2c3c(c(C4CCCCC4)nc2c1)CCCC3	-15.5%	-8.1%
CCc1ccc(C(O)c2ncc(-c3ccc(Cl)cc3)[nH]2)cc1 (stereo not drawn)	-24.6%	12.6%

Reprinted from the listing (4 entries):
SMILES	RE007 growth inh	StopGo reporter
O=P1(O)CC2=C(CC=CC2)C1	-1.2%	-19.0%
CN(C)c1ccc(N=Nc2nccs2)cc1	?	-68.3%
CC(Sc1nnc(C(C)Oc2ccc(F)cc2)o1)C(=O)NCc1ccc2c(c1)OCO2 (stereo not drawn)	-11.3%	-28.1%
Nc1ccccc1-n1nc2ccc3ccccc3c2n1	-22.1%	41.6%[activator]

An excerpt; rates above refer to the full screens.
